High-throughput results: PubChem, PCMD
Calb biofilm kill – mixtures killing C. albicans biofilm. inhibition, % at 7.6 µM. C. albicans biofilm persisters + clotrimazole, fluorescence viability; primary screen in compound mixtures of four per well. 0.02% of 120,000 active;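 active = inhibition above 30.3% in the primary screen of four-compound pools, then above 30% when the compound was retested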;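 note: compounds exposed to preformed 24 h biofilms for 48 h; the number belongs to the whole pool; some results filed as inactive read as strong as hits; inactives centre near 12; 0% = biofilm with clotrimazole alone and 100% = kill control; retested singly at about 60 µM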
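Incubation: 24 h biofilm formation, then 48 h compound exposure, 37 °C | Material: C. albicans biofilms | Buffer or medium: RPMI/MOPS medium, pH 7.0 | Measured by: 2-h Alamar Blue fluorescence, 535/590 nm excitation/emission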
* = called active by the depositor. This is a subset; rates above refer to the full screens.

SMILES | Calb biofilm kill
CCNS(=O)(=O)c1ccc(CCC(=O)NCc2ccccc2)cc1 | 8.3
COC(=O)C1=C(C)N(Cc2ccc(OC)cc2)C(=O)/C1=C\c1ccco1 | 18.1
Cc1cc(C(=O)COC(=O)c2ccc(N)c([N+](=O)[O-])c2)c(C)n1Cc1ccc2c(c1)OCO2 | 9.5
COc1ccc(C(=O)Cn2nc(CNc3ccc(Br)cc3)[n+]3c2CCCCC3)cc1 | 8.5
CSCCC(NS(=O)(=O)c1ccc(Cl)cc1)C(=O)OCC(=O)N1CCCc2ccccc21 (configuration not stated) | -3.0
O=C(CC(c1ccccc1)c1ccccc1)Nc1nn[nH]n1 | 16.6
Clc1ccc2nc(-c3ccncc3)cc(-c3ccccc3)c2c1 | 9.8
CN(C)CCCn1c(=O)n(Cc2ccco2)c(=O)c2c3c(sc21)CCCCC3 | 20.3
CN1CCN(NC(=S)Nc2ccc(OC(F)F)cc2)CC1 | -1.2
Cc1cc(C)nc(NS(=O)(=O)c2ccc(NC(=O)CCCN3C(=O)c4ccccc4C3=O)cc2)n1 | 9.8
CC1CCCCN1C(=S)Nc1ccc(OC(F)F)cc1 (configuration not stated) | 10.5
CC(C)(C)NC(=S)NC1CC1 | 6.6
CC(C)(C)NC(=O)CN(C(=O)c1ccc(Cl)nc1)c1cccc2ccccc12 | 20.2
CC(=O)c1sc(Nc2nc3cc4c(cc3s2)OCO4)nc1C | 19.3
COc1ccc(OC)c(-c2csc(NC(=O)C3COc4ccccc4O3)n2)c1 (configuration not stated) | 14.6
Cc1ccnc(NS(=O)(=O)c2ccc(N3C(=O)c4ccccc4C3=O)cc2)n1 | 15.0
COc1cc(/C=N/Nc2cccc(C)c2)ccc1OC(=O)c1ccco1 | 13.4
O=[N+]([O-])c1cc(-c2nc(-c3ccncc3)no2)ccc1Cl | 10.4
CCNC(=S)N(CCc1c(C)[nH]c2ccc(Cl)cc12)Cc1ccco1 | 23.0
CCOC(=O)c1nnn(-c2ccc([N+](=O)[O-])cc2[N+](=O)[O-])c1C | 0.9
COc1cc(C(=O)N2CCN(C/C=C/c3ccccc3)CC2)cc(OC)c1OC | 10.9
c1ccc(-n2ncc3c(NC4CCCCCC4)ncnc32)cc1 | 21.3
Cc1ccc(N2CC(C(=O)OCC(=O)Nc3ccccc3F)CC2=O)cc1 (configuration not stated) | 19.2
S=C(NCC1CCCO1)N1CCN(c2ccccc2)CC1 (configuration not stated) | 11.3
O=C(O)CCCCCNC(=O)C(=O)C1C(=O)Nc2ccccc21 (configuration not stated) | 13.4
(continued)
SMILES | Calb biofilm kill
C/C(=N\NC(=O)C(=O)Nc1c(C)n(C)n(-c2ccccc2)c1=O)c1ccncc1 | 11.5
CCc1nc2ccccc2c(C(=O)OCC(=O)NCc2ccc3c(c2)OCO3)c1C | 19.1
COc1ccc(Nc2c3c(nc4ccccc24)CCCC3)cc1OC | 13.5
COc1ccc(C2/C(=C(/O)c3ccccc3)C(=O)C(=O)N2c2ccccn2)cc1OC (configuration not stated) | 12.4
Cc1cc(C)nc(SC2CCCCC2NS(=O)(=O)c2ccc(Cl)cc2)n1 (configuration not stated) | 15.8
O=C1C(=O)N(CC2CCCO2)C(c2ccccc2[N+](=O)[O-])/C1=C(/O)c1ccccc1 (configuration not stated) | 4.9
O=C(CSc1nnnn1-c1ccccc1)Nc1ncc(Cc2cccc(Cl)c2Cl)s1 | 8.8
N=C1c2ccccc2CN1NC(=O)c1cccc(S(=O)(=O)N2CCCCC2)c1 | 12.3
C/C(=N\O)c1ncc(C(F)(F)F)cc1Cl | 11.4
O=C(Cn1cc(C(=O)C(F)(F)F)c2cc(Br)ccc21)N1CCOCC1 | 2.7
COc1cc(NC(=S)NCCCN2CCOCC2)c(OC)cc1Cl | 12.1
Cc1cc(N(C)C)ccc1N=Nc1ccc2ncccc2c1 | 1.6
O=P(O)(O)c1cc(-c2ccccc2)oc1-c1ccccc1 | 9.5
CCN(CC)c1ccc(C(=O)OCC(=O)N(C)Cc2ccccc2)cc1 | 14.0
O=C(CN1C(=O)NC2(CCCCCC2)C1=O)NC1CC1 | 5.4
Cc1nc2ccccc2c2c1C(=O)N(c1cccc(C(=O)O)c1)C2=O | 16.7
COc1ccc(C)cc1NC(=O)c1ccccc1NS(=O)(=O)c1ccc(Cl)s1 | 35.7
N#CC1=C(S)N(c2ccccc2)C2(CCCCC2)NC1=O | -3.5
CC(C)(C)c1cc(CCC(=O)NNC(=S)NC(=O)c2ccccc2)cc(C(C)(C)C)c1O | 12.9
CCOC(=O)c1c(CC(C)C)csc1NC(=O)COC(=O)c1cc(OC)c(OC)cc1[N+](=O)[O-] | 12.4
Cc1nnc(SCC(=O)Nc2cc(S(=O)(=O)N3CCCC3)ccc2Cl)s1 | 23.4
CC(C)Oc1cccc(-c2cc(C(=O)NC(=S)N(C)c3ccccc3C(=O)O)c3ccccc3n2)c1 | 6.1
Cn1nc(Cc2n[nH]c(=S)n2C)c2ccccc2c1=O | 22.1
CN(C)S(=O)(=O)c1ccc(C(=O)NCc2nnc(SCC(=O)Nc3ccc(F)cc3)n2-c2ccc(F)cc2)cc1 | 5.3
CN(C)c1ccc(/C=N/NC(=O)CCc2c[nH]c3ccccc23)cc1 | 10.3

Rewritten as tab-separated lines: entries from further up.
compound	Calb biofilm kill
C/C(=N\O)c1ncc(C(F)(F)F)cc1Cl	11.4
Cc1cc(C)nc(SC2CCCCC2NS(=O)(=O)c2ccc(Cl)cc2)n1 (configuration not stated)	15.8

(listing goes on)
SMILES | Calb biofilm kill
CN(C)CCCN=Cc1c(O)n(Cc2ccc3c(c2)OCO3)c(=O)c2ccccc12 | 19.6
COCCn1c(=NC(=O)c2cc3ccccc3oc2=O)sc2cc(S(N)(=O)=O)ccc21 | 8.4
COc1cccc(C=Nc2ccc(C)c(F)c2)c1O | 8.6
Cc1ccc(Cl)cc1N1CCN(C(=O)CN(c2ccccc2)S(=O)(=O)N(C)C)CC1 | 1.9
COc1ccc(NC(=O)/C(=C\c2ccc3c(c2)OCO3)NC(C)=O)cc1 | 20.0
COc1cc2c(cc1OC)C(c1cccs1)N(C(=O)c1cccc(S(=O)(=O)N(C)C)c1)CC2 (configuration not stated) | 7.9
COC(=O)c1scc(C#N)c1N/N=C(\C#N)S(=O)(=O)c1ccc(Cl)cc1 | 24.1
CCOC(=O)/C=C1\SCC(=O)N1CC(=O)NCc1ccc(OC)c(OC)c1 | -3.2
CC(C)(C)c1ccc(C(=O)NCC(=O)N/N=C/c2ccccc2OCC(=O)O)cc1 | -0.3
COc1ccc(/C=C/CN2CCN(Cc3ccccc3)C(CCO)C2)cc1 (configuration not stated) | 16.3
Cc1nc2ccc(NC(=O)c3ccc(S(=O)(=O)N(C)c4ccccc4)cc3)cc2s1 | 0.8
COc1ccc(/C=C(/NC(=O)c2ccccc2)C(=O)NC2CCS(=O)(=O)C2)cc1 (configuration not stated) | 16.5
COc1ccc(CCNC(=O)C/C(C)=N/NC(=O)C23CC4CC(CC(C4)C2)C3)cc1OC | 10.2
O=[N+]([O-])c1cc(C(F)(F)F)ccc1Oc1cccnc1[N+](=O)[O-] | 8.3
O=C(CCl)NC(=O)NC12CC3CC(CC(C3)C1)C2 | 7.5
CCn1c(=O)c2cc(C(=O)N3CCCC3)sc2c2ccccc21 | 18.1
C/C(=N/NC(=O)C1COc2ccccc2O1)c1ccco1 (configuration not stated) | 17.4
Cc1c(C)c(C)c(CN2CCSCC2)c(C)c1C | 23.5
COc1ccccc1NC(=O)CCc1nc2ccccc2s1 | 17.2
O=C(N/N=C/c1sc(N2CCOCC2)nc1-c1ccccc1)c1cccc(S(=O)(=O)N2CCOCC2)c1 | 23.1
CC1CCc2c(sc(/N=C/N(C)C)c2C#N)C1 (configuration not stated) | 12.2
Cc1ccc(N=C2c3ccccc3C(=O)C2[N+](=O)[O-])cc1C (configuration not stated) | 8.4
COCCCNC(=S)NNC(=S)Nc1ccc(OC)cc1 | 1.3
Cc1ccc(-c2ccc(SCC(=O)c3ccccc3)nn2)cc1 | 17.9
COc1ccc(-n2ccnc2SCC(=O)NCc2ccc(F)cc2)c(OC)c1 | 22.2
Other compounds
SMILES | Calb biofilm kill
COc1ccc(CCNC(=O)c2csc3c2CCCC3)cc1 | 9.0
CCCCn1c(=O)c(CCC(=O)OCC(=O)NC(=O)NCCOC)nc2ccccc21 | 5.3
COP(=O)(OC)c1nc(-c2cccc3ccccc23)oc1N1CCOCC1 | 10.3
COC(=O)c1cn(-c2ccc(F)cc2)c(=O)c2ccccc12 | 11.0
CCOc1cc(S(=O)(=O)n2cnc(C)c2)ccc1Cl | 9.3
COc1ccc(-c2cc(Nc3ccccc3NC(=O)C(F)(F)F)n(CCC#N)n2)cc1 | 10.1
Cc1cc(C)nc(N2CCC(C(=O)NNC(=O)Cc3ccccc3)CC2)n1 | 21.7
O=C(CSc1nnc2c(n1)[nH]c1ccccc12)Nc1cccc(S(=O)(=O)N2CCOCC2)c1 | 17.3
Cn1cnc([N+](=O)[O-])c1Nc1ccccc1O | 11.9
COc1ccc(Br)cc1/C=C\C(=O)NCc1cccnc1 | 6.7
CC(C)C(=O)NN1c2ccccc2CCc2ccccc21 | -1.3
Fc1ccc(N2CCN(Cc3nnc(-c4ccccc4)o3)CC2)cc1 | -6.0
C/C(=N\NC(=O)C1CC1)c1cccc(NC(=O)c2cccc(Cl)c2)c1 | 11.8
Nc1ncnc(Nc2cccc(Cl)c2Cl)n1 | 5.8
C#CCOCCOCCOCCNc1nc(N2CCN(C(=O)[C@H](CCCCN)n3cc([C@@H](N)C(C)CC)nn3)CC2)nc(N2CCN(C(=O)[C@H](Cc3cc4ccccc4[nH]3)n3cc([C@@H](N)CC(C)C)nn3)CC2)n1 (some centres not stated) | 10.0
COc1ccccc1NC(=O)CC1SC(=N)N(c2ccccc2)C1=O (configuration not stated) | 8.8
COc1ccc(OC)c(NC(=O)CCc2c[nH]c3ccccc23)c1 | -3.8
CC(=O)Nc1cccn(Cc2c(Cl)cccc2Cl)c1=O | 8.8
Cc1ccc2nc3sc(C(=O)Nc4c(C)[nH]c(=O)[nH]c4=O)c(N)c3cc2c1 | 16.8
O=C(O)/C=C/c1cn(-c2ccccc2)nc1-c1cc2ccccc2oc1=O | 16.4
O=C(NC1CC1)C1=C[C@@H](C2CCCCC2)C[C@@H](OCc2ccc(CO)cc2)O1 | 19.9
Clc1ccc(CNCc2cccs2)cc1Cl | 13.3
O=C(NCCc1ccccc1)C(=O)NCC(c1ccco1)N1CCOCC1 (configuration not stated) | 13.1
CC(C(=O)NCCN1C(=O)S/C(=C\c2cccs2)C1=O)N1C(=O)c2ccccc2C1=O (configuration not stated) | -3.4
COc1ccc(-c2csc(/C(C#N)=C\c3cccc([N+](=O)[O-])c3)n2)cc1 | 10.9

Three structures already listed, ordered by number of heavy atoms, lowest first.
SMILES | Calb biofilm kill
C/C(=N\O)c1ncc(C(F)(F)F)cc1Cl | 11.4
CC1CCCCN1C(=S)Nc1ccc(OC(F)F)cc1 (configuration not stated) | 10.5
Cc1nc2ccc(NC(=O)c3ccc(S(=O)(=O)N(C)c4ccccc4)cc3)cc2s1 | 0.8

Following part:
SMILES | Calb biofilm kill
Cc1ccc(NC(=O)CN2CCC(C(=O)c3ccc(F)cc3)CC2)cc1 | 20.9
COC(=O)CCC(=O)OC1(C)C(=O)C2=CN(CC3CC3)C(c3ccc(OC)cc3)=CC2=C(Br)C1=O (configuration not stated) | 16.2
CCC(O)c1c(-c2ccccc2)nn(C)c1Cl (configuration not stated) | 1.3
O=c1[nH]c(-c2ccc3c(c2)OCO3)nc2c1sc(=S)n2-c1ccccc1 | 10.9
N#Cc1cnn(-c2ccccc2)c1NC(=O)CN1CCN(c2ccccc2)CC1 | 16.9
Cc1ccc(OCCCCNC2CCCCC2)c(C)c1 | 19.9
CCOC(=O)C1=C(C)NC(SC)=C(C#N)C1CC(C)C (configuration not stated) | 11.9
COc1ccc(/C=C/C(=O)NC(C)(C)C)cc1S(=O)(=O)N1CCOCC1 | 8.0
CCN(CC)CCNCc1cc(Cl)ccc1OCc1ccccc1F | 4.2
S=C(NCc1ccncc1)Nc1ccc(Cl)cc1 | 17.8
CC(OC(=O)CNS(=O)(=O)/C=C/c1ccccc1)C(=O)Nc1ccc(S(=O)(=O)N2CCCC2)cc1 (configuration not stated) | 8.5
COc1cc(C(=O)NC(=S)NNC(=O)[C@H]2C[C@@H]2c2ccccc2)cc(OC)c1OC | 14.2
Cc1nnc(SCC(=O)Nc2ncc(S(=O)(=O)c3ccc([N+](=O)[O-])cc3)s2)s1 | 10.9
NC(=O)NC(=O)COC(=O)c1ccc2c(c1)C(=O)N(Cc1ccccc1)C2=O | 15.9
COc1ccc2c(c1)C1=NN(/C(C)=C\C(C)=O)C(c3ccccc3)C1CC2 (configuration not stated) | 13.4
O=C(CSc1ccccc1)Nc1nc2ccccc2[nH]1 | 14.2
COc1ccc(-c2cnnn2-c2ccc(NC(=O)/C=C/c3ccc(OC)c(OC)c3)cc2)cc1 | 4.2
COc1cccc(C2CC(c3cccs3)=NN2C(=O)CSc2nc3ccccc3o2)c1OC (configuration not stated) | 13.2
CSc1nc2ccc(NC(=O)c3ccco3)cc2s1 | 19.3
O=C(NCCCn1ccnc1)C(=O)NCC1OCCN1S(=O)(=O)c1ccccc1 (configuration not stated) | -2.8
CCOC(=O)c1c(C)[nH]c(N=Nc2ccccc2Cl)c1C | -6.0

7 consecutive records already listed:
SMILES | Calb biofilm kill
COc1cc(C(=O)NC(=S)NNC(=O)[C@H]2C[C@@H]2c2ccccc2)cc(OC)c1OC | 14.2
Cc1nnc(SCC(=O)Nc2ncc(S(=O)(=O)c3ccc([N+](=O)[O-])cc3)s2)s1 | 10.9
NC(=O)NC(=O)COC(=O)c1ccc2c(c1)C(=O)N(Cc1ccccc1)C2=O | 15.9
COc1ccc2c(c1)C1=NN(/C(C)=C\C(C)=O)C(c3ccccc3)C1CC2 (configuration not stated) | 13.4
O=C(CSc1ccccc1)Nc1nc2ccccc2[nH]1 | 14.2
COc1ccc(-c2cnnn2-c2ccc(NC(=O)/C=C/c3ccc(OC)c(OC)c3)cc2)cc1 | 4.2
COc1cccc(C2CC(c3cccs3)=NN2C(=O)CSc2nc3ccccc3o2)c1OC (configuration not stated) | 13.2
